CtBP-E1A inh: blocks the CtBP interaction with E1A. AlphaScreen GST-E1A/His-CtBP binding, 1536-well; active compounds read low; control for the full effect not named in the record. activity change, % (concentration not given with the values). 0.49% of 340,000 active. AID 651724; in the data active means activity change below about -65%; inconclusive means about -30% to -65%; inactive means above about -30%; also: % is scaled to controls: 0 for no effect and ±100 for the full control effect
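GST-E1A and His-tagged CtBP (125 nM each as 5X stock) were preincubated with pin-transferred compound for 2 h at 37 °C in the dark, then glutathione donor and nickel acceptor beads were added for 1 h before AlphaScreen reading.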
PINK1 expr mod: modulators of PINK1 expression; PINK1 immunofluorescence, high-content cytometry, 24 h; Potency, µM (titrated, usually from 76.6 µM), inactives show at the top dose activation (PINK1 increase), most hits filed as activators; 0.2% of 410,000 active; AID 624263; active = well fitted activation curve with a large enough effect; inconclusive = small, poorly fitted or top-dose-only effect; inactive = flat fitted curve, though single readings scatter; cell line not stated here;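 also: potency is read from the fitted curve at half-maximal effect; % of control where 0% means no effect; nearly all actives have a fitted effect of over 65% in size; a mitochondrial uncoupler was the plate control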
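Stable cell line, 250 cells/well, 12 h attachment; compounds pinned at 5 concentrations, 24 h; CCCP control. Fixed with nuclear dye, primary antibodies 12 h at 10 degrees C, secondary plus cell stain; laser-scanning cytometer read.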
Six1-Eya2 blk: blocks human Six1 binding to Eya2; AlphaScreen GST-Six1/His-Eya2 binding, biochemical; active compounds read low; control for the full effect not named in the record; Q15475+O00167; 0.56% of 360,000 active; AID 651725; activity change, % (test concentration not listed); in the data active = activity change below about -65%; inconclusive = about -30% to -65%; inactive = above about -30%; also: % is scaled to controls: 0 for no effect and ±100 for the full control effect
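Six1/Eya2 binding was read as AlphaScreen signal after compounds were pinned into GST-Six1 plus His-tagged Eya2 (5X stock 250/500 nM) in pH 8.0 Tris/NaCl/TCEP buffer, beads added, then incubated 1 h, 37 C, dark.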
TRPML1 inh: inhibitors of human TRPML1 channel; Q9GZU1; TRPML1-inducible cells, Ca2+ dye fluorescence, FDSS; active compounds read low; inhibition of EC80 agonist-evoked calcium signal; activity change, negative = inhibition, % (test concentration not listed); 0.02% of 390,000 active; AID 624415; in the data active means activity change below about -50%; inconclusive means about -30% to -50%; inactive means above about -30%;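 also: stimulus is agonist 54-4 at its EC80 concentration; % is scaled to controls: 0 for no effect and ±100 for the full control effect; compound concentration not given in the record; the text of the record puts the active cut at -80%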
Target sequence (Q9GZU1 whole entry, looked up): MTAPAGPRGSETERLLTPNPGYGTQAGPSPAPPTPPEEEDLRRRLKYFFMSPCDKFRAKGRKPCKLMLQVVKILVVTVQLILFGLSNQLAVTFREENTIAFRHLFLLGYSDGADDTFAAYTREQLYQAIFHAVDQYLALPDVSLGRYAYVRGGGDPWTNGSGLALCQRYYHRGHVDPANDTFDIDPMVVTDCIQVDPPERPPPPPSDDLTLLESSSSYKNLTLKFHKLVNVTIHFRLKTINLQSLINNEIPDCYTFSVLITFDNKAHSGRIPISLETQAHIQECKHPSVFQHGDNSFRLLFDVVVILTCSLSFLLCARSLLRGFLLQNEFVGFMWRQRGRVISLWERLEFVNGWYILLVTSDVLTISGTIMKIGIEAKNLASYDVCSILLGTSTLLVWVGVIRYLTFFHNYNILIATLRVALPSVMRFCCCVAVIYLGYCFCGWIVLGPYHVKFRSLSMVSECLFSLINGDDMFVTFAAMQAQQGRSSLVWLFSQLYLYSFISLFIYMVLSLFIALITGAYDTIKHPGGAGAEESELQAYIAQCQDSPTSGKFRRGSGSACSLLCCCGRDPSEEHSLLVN
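Calcium fluorescence in TRPML1-DL cells induced overnight with Tet: a 110 s read after compound pin addition, then a 110 s antagonist read after challenge with 54-4 at 4 uM final (EC80).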
D2 agonist: activates the human D2 dopamine receptor | activation, % (concentration not given with the values) | 0.084% of 360,000 active | P14416 | DiscoveRx PathHunter D2 beta-arrestin, luminescence, 90 min; 100% = 57 uM dopamine signal; in the data active = activation above about 40%; inconclusive = about 15% to 40%; inactive = below about 15%; also: compound concentration not given in the record; the text of the record calls up to 30% inactive
Target sequence (P14416 whole entry, looked up): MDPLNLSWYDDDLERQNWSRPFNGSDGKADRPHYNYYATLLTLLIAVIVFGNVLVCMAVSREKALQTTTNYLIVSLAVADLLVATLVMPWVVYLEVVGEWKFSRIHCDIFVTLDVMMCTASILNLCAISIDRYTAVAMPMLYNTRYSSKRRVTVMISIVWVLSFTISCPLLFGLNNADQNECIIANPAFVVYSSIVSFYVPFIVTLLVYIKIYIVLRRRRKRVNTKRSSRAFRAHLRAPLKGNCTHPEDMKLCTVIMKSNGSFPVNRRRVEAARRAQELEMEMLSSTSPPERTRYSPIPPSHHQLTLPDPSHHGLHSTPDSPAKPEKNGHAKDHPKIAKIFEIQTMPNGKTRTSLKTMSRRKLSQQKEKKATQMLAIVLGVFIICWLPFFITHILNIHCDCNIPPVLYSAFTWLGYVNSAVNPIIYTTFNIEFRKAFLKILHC
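DiscoveRx PathHunter D2 beta-arrestin cells (2,100/well) attached overnight, then compound-stimulated 90 min at 37 C in HBSS/10 mM HEPES/0.1% Tween-20 buffer; beta-galactosidase complementation read by luminescence after 1 h at ambient temperature. Dopamine 57 uM final (EC100) as control.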
TRPML1 ag: activates the human TRPML1 channel | TRPML1-expressing cells, Ca2+ dye fluorescence, FDSS; host cell line not named in the record; reference of the full effect not given here | 0.12% of 410,000 active | activation, % (concentration not given with the values) | Q9GZU1; in the data active = activation above about 50%; inconclusive = about 30% to 50%; inactive = below about 30%; also: 0% is about no effect; the text of the record puts the active cut at 80%
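Tetracycline-induced TRPML1-DL cells are seeded and incubated overnight before loading with a no-wash Ca2+ dye and quencher. Agonist activity is taken from the 110 s fluorescence read following compound pin-transfer on an FDSS, before EC80 54-4 challenge.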
Numbers without * were called inactive; ? = inconclusive; . = no result given; [ ] = remark or other dose.

Key to letters – A = CtBP-E1A inh; B = PINK1 expr mod; C = Six1-Eya2 blk; D = TRPML1 inh; E = D2 agonist; F = TRPML1 ag
[1] CCOc1ccc(NC(=O)Cn2c(=O)n(-c3ccc(C)cc3)c(=O)c3cc(OC)c(OC)cc32)cc1
  A: . | B: 0.2% | C: . | D: 9 | E: . | F: 0.0

[2] Cc1ccc(/C=N/NC(=O)C(=O)N/N=C/c2ccc(C)o2)o1
  A: -7 | B: -1.2% | C: 11 | D: 2 | E: -2.4 | F: 0.3

[3] C/C(=N\NC(=O)CN(c1ccccc1Br)S(C)(=O)=O)c1ccc2c(c1)OCCO2
  A: 0 | B: 0.6% | C: -16 | D: -6 | E: 1.4 | F: 3.6

[4] CC(C)NC(=NCc1ccc(Cl)cc1Cl)Nc1ccccc1
  A: . | B: 0.6% | C: -2 | D: 6 | E: -4.5 | F: -0.3

[5] CCCCC(O)(CCCC)C(=O)NN(C(=O)OCC)c1ccccc1
  A: -17 | B: 2.7% | C: 1 | D: -7 | E: -5.2 | F: -1.1

[6] CCN(CC)S(=O)(=O)N1CCC(C(=O)NCc2ccc(C)cc2)CC1
  A: 8 | B: 1.5%[38.3 µM] | C: 4 | D: 18 | E: 3.3 | F: -0.1

[7] O=S(=O)(NC1CCCCC1)c1cccc2nsnc12
  A: -20 | B: 3.8% | C: -4 | D: 7 | E: 5.0 | F: -0.1

[8] Nc1ccc(C(=O)NCC(=O)O)cc1
  A: -24 | B: 0.5% | C: 4 | D: 10 | E: -4.7 | F: 1.7

[9] NC(=O)C1CCN(c2ncnc3c(-c4ccccc4)nsc23)CC1
  A: -1 | B: -0.9% | C: -6 | D: -4 | E: -0.9 | F: -0.1

[10] Nc1c(C(=O)Nc2ccccc2)c2nc3ccccc3nc2n1CCCN1CCOCC1
  A: ? | B: -1.7% | C: ? | D: 34 | E: 0.0 | F: 0.5

[11] CC(=O)Nc1cccc(-c2csc(C(C)(O)c3ccc(F)c(F)c3)n2)c1 (stereo unspecified)
  A: 1 | B: 0.3% | C: 5 | D: . | E: 2.2 | F: 0.1

[12] COc1ccccc1NS(=O)(=O)c1cc(NC(=O)c2ccc3ccccc3n2)ccc1Cl
  A: -1 | B: 5.9% | C: -14 | D: 35 | E: 1.4 | F: 1.8

[13] C#CCn1c(=NC(=O)c2ccc(S(=O)(=O)N3CCc4ccccc4C3)cc2)sc2cc(S(N)(=O)=O)ccc21
  A: -3 | B: -2.0% | C: -7 | D: -6 | E: -4.9 | F: 0.5

[14] Cc1ccccc1C(OCC(O)CN1CCC(C(N)=O)CC1)c1ccccc1 (stereo unspecified)
  A: 22 | B: 0.6% | C: 2 | D: 25 | E: 0.9 | F: -0.3

[15] O=C(COC(=O)C(Cc1ccccc1)NC(=O)c1ccccc1)c1ccccc1 (stereo unspecified)
  A: -22 | B: 2.0% | C: 4 | D: 54 | E: -2.6 | F: 4.6

[16] COc1ccc(CC(=O)NNc2ncnc3c2cnn3-c2ccccc2)cc1
  A: 2 | B: 0.3% | C: 3 | D: -23 | E: -2.0 | F: 2.7

[17] c1ccc(-c2cc3c(N4CCOCC4)ncnc3s2)cc1
  A: 1 | B: 0.6% | C: -1 | D: 5 | E: -0.8 | F: 2.3

[18] CCn1c(=O)c2cc(C(=O)NCCN3CCOCC3)sc2c2ccccc21
  A: 2 | B: 0.0% | C: 1 | D: -8 | E: -2.9 | F: 0.0

[19] Nc1c(Cl)cc(Cl)cc1C(=O)OCC(=O)N1CCCC1=O
  A: 10 | B: 20% | C: 0 | D: 1 | E: -2.1 | F: -0.6

[20] COc1ccc(CN(C(=O)c2nsc(Cl)c2Cl)C(C(=O)NC2CCCC2)c2ccc(C)cc2)cc1 (stereo unspecified)
  A: -3 | B: 3.9% | C: -7 | D: 45 | E: -0.9 | F: 2.1

[21] Cc1ccc(C(=O)OC2CCS(=O)(=O)c3sccc32)cc1 (stereo unspecified)
  A: 2 | B: -0.9% | C: -1 | D: 14 | E: -7.7 | F: 0.6

[22] COc1cccc(NC(=O)Nc2nc(-c3ccc(OC)c(OC)c3)cs2)c1
  A: -29 | B: -1.5% | C: -19 | D: 1 | E: ? | F: 2.5

[23] Cc1cc(C)c(OCC(=O)NCC(C)(C)N2CCOCC2)c(C)c1
  A: 5 | B: 0.3% | C: -3 | D: 9 | E: -4.6 | F: -0.7

[24] CCc1noc(-c2ccc(NC(C)c3ccccc3)c([N+](=O)[O-])c2)n1 (stereo unspecified)
  A: . | B: 4.2% | C: . | D: 18 | E: . | F: -0.2

[25] CCc1nc2nc(C)c(NS(=O)(=O)c3ccc(C(C)(C)C)cc3)c(=O)n2[nH]1
  A: . | B: -0.8% | C: . | D: 33 | E: . | F: 0.5

[26] CCOc1ccc(S(=O)(=O)Nc2nc3ccccc3nc2Cl)cc1
  A: . | B: 0.8% | C: 1 | D: -24 | E: 3.5 | F: -0.2

[27] Cc1ccc(OCC(=O)N/N=C2\CCOc3c(C)cccc32)cc1
  A: 0 | B: 4.7%[38.3 µM] | C: -1 | D: -1 | E: -3.2 | F: 2.2

[28] O=C(CSc1nnc(-c2ccccc2)o1)N1CCOCC1
  A: 2 | B: 1.6% | C: 0 | D: 3 | E: -3.1 | F: -0.7

[29] CCc1cc2ccc(C)c(C)c2nc1SCC(=O)NNC(=O)c1ccco1
  A: -4 | B: -0.4% | C: 2 | D: 40 | E: -2.7 | F: 0.9

[30] COc1ccc(C#Cc2cccc(-c3nc(C(=O)N4CCN(C)CC4)cc4c3[C@H](CCO)N(S(=O)C(C)(C)C)C4)c2)cc1OC (stereo partly specified)
  A: -4 | B: 1.5% | C: -20 | D: . | E: 3.1 | F: -0.7

[31] CCC(ONc1ccccc1C(F)(F)F)(C(=O)NN(C)C)c1ccccc1 (stereo unspecified)
  A: 0 | B: 7.1% | C: 2 | D: -6 | E: -10.0 | F: -0.1

[32] CC1CC(C)CN(C(=O)c2cc3cc(Br)cc(Br)c3o2)C1 (stereo unspecified)
  A: 11 | B: 20% | C: 10 | D: 26 | E: -0.1 | F: 2.4

[33] COC(=O)CCC(=O)c1oc2ccccc2c1NC(=O)CCCN1C(=O)c2ccccc2C1=O
  A: 3 | B: 2.5% | C: 0 | D: 1 | E: -1.9 | F: 0.3

[34] Nc1ccc(S(=O)(=O)N2CCc3ccccc32)cc1
  A: 7 | B: 2.4% | C: -5 | D: -11 | E: -2.0 | F: -0.7

[35] CCOC(=O)c1nn(-c2ccccc2F)c(-c2ccccc2)c1C(=O)c1ccccc1
  A: -4 | B: -3.2% | C: -8 | D: -23 | E: -5.1 | F: 2.7

[36] CC(NC(=O)Cc1ccc(S(=O)(=O)N2CCOCC2)s1)c1ccc(Cl)c(Cl)c1 (stereo unspecified)
  A: 10 | B: -0.3% | C: 3 | D: -2 | E: -0.7 | F: 0.3

[37] COc1cccc(C(=O)Nc2nnc(-c3ccccc3)s2)c1
  A: 0 | B: 3.1% | C: -7 | D: -25 | E: 0.1 | F: 1.2

[38] Cc1cccc(NC(=O)c2nc[nH]c2C(=O)N[C@@H](C)c2ccccc2)c1
  A: -11 | B: 0.3% | C: -17 | D: 26 | E: -2.3 | F: 2.9

[39] COc1ccc(-c2nc3cc(C(C)C)ccc3o2)cc1NC(=O)c1ccccc1[N+](=O)[O-]
  A: . | B: 4.5% | C: . | D: 25 | E: . | F: -0.5

[40] O=C(Nc1nc(-c2ccncc2)cs1)C1c2ccccc2Oc2ccccc21
  A: 24 | B: 4.7% | C: -8 | D: -13 | E: 5.5 | F: 2.4

[41] O=C(NC1CC1)c1cc(F)c(F)cc1Cl
  A: 6 | B: -0.6%[38.3 µM] | C: 4 | D: -1 | E: -3.4 | F: -0.4

[42] COc1ccc(CN(C)C(C)C(=O)Nc2ccc(S(=O)(=O)N3CCOCC3)cc2)c(OC)c1 (stereo unspecified)
  A: -2 | B: 2.5% | C: 5 | D: -15 | E: 5.9 | F: -0.3

[43] CCN(CC)CCCNC(=O)c1ccc(Cl)c(S(=O)(=O)Nc2ccccc2OC)c1
  A: -4 | B: . | C: 8 | D: 13 | E: -0.9 | F: -0.1

[44] Cc1ccc2nc(SCC(=O)NCc3ccco3)[nH]c2c1
  A: -4 | B: -0.3%[38.3 µM] | C: -2 | D: 3 | E: -2.6 | F: 2.7

[45] COc1ccc(CC(=O)N/N=C/c2ccc(-c3ccc(F)cc3)o2)cc1OC
  A: 1 | B: 1.0% | C: -15 | D: -6 | E: 1.2 | F: 0.0

[46] C/C(=N\NC(=O)c1cccnc1)c1cccc([N+](=O)[O-])c1
  A: -9 | B: -0.7% | C: 0 | D: -6 | E: -4.3 | F: 0.9

[47] O=C(NCCc1cccc(Cl)c1)c1cc([N+](=O)[O-])ccc1Cl
  A: 6 | B: 6.9% | C: -5 | D: 17 | E: -0.6 | F: 0.3

[48] CCOCCn1c(C(C)C)nc2ccccc21
  A: 6 | B: 5.6% | C: 4 | D: 34 | E: -1.5 | F: -0.6

[49] Cc1nc2cc(NC(=O)c3ccc(N4C(=O)CCC4=O)cc3)ccc2s1
  A: . | B: 0.5% | C: 10 | D: 1 | E: -4.9 | F: 1.7

[50] CCOC(=O)c1c(C)n(-c2ccccc2)c2ccc(OC(=O)c3cccc(C)c3)cc12
  A: . | B: -0.4% | C: . | D: 33 | E: . | F: 0.2

Remaining list, next part:
Key to letters – A = CtBP-E1A inh; B = PINK1 expr mod; C = Six1-Eya2 blk; D = TRPML1 inh; E = D2 agonist; F = TRPML1 ag
[51] CCCCc1cc(=O)oc2cc(OCC(=O)N3CCc4ccccc43)ccc12
  A: 0 | B: 5.4% | C: 21 | D: -12 | E: -3.9 | F: -0.9

[52] CCCc1nn2c(C)c(-c3ccccc3)nc2s1
  A: . | B: -0.5% | C: . | D: -12 | E: . | F: -0.1

[53] COc1ccc(C2Cc3ccccc3C(=O)O2)cc1 (stereo unspecified)
  A: -3 | B: 6.4% | C: 1 | D: 17 | E: -2.4 | F: 2.2

[54] CCC(C)(C)NC(=O)C(OC(=O)c1ccco1)c1ccccc1OC (stereo unspecified)
  A: 1 | B: -5.2% | C: 3 | D: -12 | E: -5.9 | F: 0.1

[55] COc1ccc(/C=N/NC(=O)c2ccc(Br)cc2)cc1CN1CCOCC1
  A: 3 | B: 1.2% | C: 5 | D: 11 | E: -1.1 | F: 0.7

[56] Cc1cc(NC(=O)CSCC(=O)N(c2ccc(F)cc2)C(C(=O)NC2CCCCC2)c2ccc(O)c(O)c2)no1 (stereo unspecified)
  A: 3 | B: -0.3% | C: -1 | D: 2 | E: 2.1 | F: 0.3

[57] CCOC(=O)/C(C#N)=C/c1ccc(OC)c(OC)c1
  A: 12 | B: -1.4% | C: -12 | D: 48 | E: -7.6 | F: 0.3
